# Compound activity: PubChem BioAssay, several laboratories
# Mtb bLac sens: beta-lactam sensitization of Mtb H37Rv; M. tuberculosis H37Rv growth with meropenem, percent inhibition; hits of this screen are not shown here; inhibition, % at 25 µM; 330,000 compounds, 0.27% hits; AID 434955;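 active = about 74% or more and at least 40 points above the plate without the antibiotic, then above 30% in a dose series; inconclusive = first-round hits that could not be retested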;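 note: growth measured after seven days incubation then overnight dye step; 0% = bacteria only wells and 100% = bacteria with antibiotic; twin plates without the antibiotic show which effects depend on it; some results filed as inactive read as strong as hits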
# Arbovirus inh: antivirals against arbovirus infection. arbovirus infection cell-based antiviral screen. inhibition, % at 10 µM. 200,000 compounds, 0.37% hits;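 active = inhibition from about 30%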;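 note: bluetongue infection of BSR cells; cell survival read as ATP light after 72 h; 0% = infected wells without compound and 100% = uninfected wells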
# Mtb growth: M. tuberculosis H37Rv growth inhibitors, H37Rv strain (AID 1626). M. tuberculosis H37Rv growth inhibition; higher % means a stronger effect. inhibition, % at 10 µM; hits with a dose series show IC50 in µM. 220,000 compounds, 0.95% hits;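 active = confirmed in a dose series; inconclusive = inhibition above 80% but not taken into the dose series; inactive = below 80% or under 30% at every dose of the series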;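 note: bacteria incubated seven days before Alamar blue readout; 0% = bacteria only wells and 100% = bacteria with antibiotic wells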
# RecA intein inh: blocks M. tuberculosis RecA intein splicing | P9WHJ3 | 290,000 compounds, 0.75% hits | inhibition, %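 (about 9 µM by stock and volumes)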 | cell-free RecA intein splicing, fluorescence | AID 2221; in the data active = inhibition above about 30%; inconclusive = no clear call, values can overlap the other calls;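 note: 0% = vehicle wells and 100% = reference inhibitor control wells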
# Target sequence (P9WHJ3 whole entry, looked up): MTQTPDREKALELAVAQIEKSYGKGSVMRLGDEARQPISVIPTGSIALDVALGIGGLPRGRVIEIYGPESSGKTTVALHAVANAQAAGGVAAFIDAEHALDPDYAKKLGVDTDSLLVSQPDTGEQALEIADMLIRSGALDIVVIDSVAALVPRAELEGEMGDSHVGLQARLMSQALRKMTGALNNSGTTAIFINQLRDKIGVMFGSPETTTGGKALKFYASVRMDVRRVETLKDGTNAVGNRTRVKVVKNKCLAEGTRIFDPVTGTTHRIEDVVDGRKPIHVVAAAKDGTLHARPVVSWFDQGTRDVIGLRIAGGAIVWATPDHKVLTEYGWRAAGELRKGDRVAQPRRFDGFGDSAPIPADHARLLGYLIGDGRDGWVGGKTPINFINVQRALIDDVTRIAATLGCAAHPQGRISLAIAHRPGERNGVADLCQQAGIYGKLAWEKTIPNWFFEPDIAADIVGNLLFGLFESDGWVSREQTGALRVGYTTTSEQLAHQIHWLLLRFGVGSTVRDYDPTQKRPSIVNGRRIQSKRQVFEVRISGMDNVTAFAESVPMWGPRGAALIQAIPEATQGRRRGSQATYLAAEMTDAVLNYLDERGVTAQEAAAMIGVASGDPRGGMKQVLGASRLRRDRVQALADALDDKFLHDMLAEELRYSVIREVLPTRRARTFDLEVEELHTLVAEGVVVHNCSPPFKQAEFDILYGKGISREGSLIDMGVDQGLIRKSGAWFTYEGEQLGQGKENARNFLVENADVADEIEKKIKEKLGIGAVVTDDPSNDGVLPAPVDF
# YopH inh: blocks Yersinia enterocolitica YopH tyrosine phosphatase. fluorescence Ex485/Em525. inhibition, %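 (about 10 µM by stock and volumes)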. 140,000 compounds, 0.16% hits;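 active = inhibition of 50% or more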;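 note: controls were vehicle for no effect and minimum signal wells for full effect; inactives centre near -20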
# Arbovirus inh repeat: recorded beside Arbovirus inh, whose call it bears; inhibition, %; measured here: 10K subset replicate screen; many hits read low in the repeat;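 first of two repeat runs on a subset; 0% = infected and 100% = uninfected wells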
# * marks the source's active call; other numbers are inactive results; u = inconclusive; x = no result given. These rows are one share of the data; rates above refer to the full screens.
SMILES,Mtb bLac sens,Arbovirus inh,Mtb growth,RecA intein inh,YopH inh,others
CC(=O)Nc1nc2ccc(S(=O)(=O)N3CCCC3)cc2s1,2,x,x,-0.1,x,
COc1ccc(C(C)=O)cc1CN1C(=O)NC2(CCCCC2C)C1=O (stereo not given),13,-2,9%,0.1,17,
Cc1occc1C(=O)NC(C)C12CC3CC(CC(C3)C1)C2 (stereo not given),-2,-3,-3%,2.3,x,
CCCCn1c(N)c(N(CCOC)C(=O)COc2ccc(OCC)cc2)c(=O)[nH]c1=O,-1,x,x,-1.2,x,
CN(C)S(=O)(=O)c1ccc(NC(=O)CN2CCN(c3ccccn3)CC2)cc1,-4,x,x,5.8,x,
N#Cc1cc(Oc2ccc(Cl)cc2)c(N2CCOCC2)cc1C#N,4,-9,5%,-3.4,-11,
CC1(C)CC(=O)C(N=Nc2c(Cl)cc(Cl)cc2Cl)=C(O)C1,4,-10,9%,0.5,-17,
CN(C(=O)c1cc(COc2c(F)cccc2F)on1)C1CCOC1 (stereo not given),10,x,x,1.6,x,
COc1ccc(CN2CC(C(=O)NCCN3CCOCC3)CC2=O)cc1 (stereo not given),-1,4,-5%,1.3,-1,
O=C(O)CSC(C(=O)Nc1ccc(C(F)(F)F)cc1)c1ccccc1 (stereo not given),-3,-1,-2%,0.2,-52,
O=S(=O)(c1cccs1)N1CCN(Cc2nc3ccccc3s2)CC1,-5,10,8%,2.6,10,
O=C(C1CCCN(Cc2ccc([N+](=O)[O-])cc2)C1)N1CCCCC1 (stereo not given),-1,x,x,-1.2,x,
COc1ccc(C(=O)N2CCN(Cc3ccc4c(c3)OCO4)CC2)cc1OC,4,x,x,-0.4,x,
CCOc1ccc(/C(O)=C2/C(=O)C(=O)N(c3ccccn3)C2c2ccc(F)cc2)c(C)c1 (stereo not given),-3,x,x,3.6,x,
COc1ccc(N2CCN(C(=O)CSc3nnc4c(C)cc5ccccc5n34)CC2)cc1,0,-6,18%,-1.5,-28,
O=C(NC1CCCCC1)c1cc(F)cc2c1OCOC2,2,x,5%,-1.9,x,
COc1ccc(C(c2c(O)c3ccccc3oc2=O)c2c(C)n(C)n(-c3ccccc3)c2=O)cc1 (stereo not given),5,1,-3%,-1.2,-32,
CC(C)C[C@@H](CSc1ccc(Br)cc1)N1CCN(CCc2ccccc2)CCC1=O,4,x,15%,14,x,
CC(C)(C)c1nc(C(C)(C)C)c(Br)c(=O)[nH]1,12,7,10%,0.8,-15,
CCN1C(=O)c2ccccc2Sc2ccc(C(=O)O)cc21,9,x,x,1.5,x,

# Among those listed so far, 2 have bromine:
SMILES,Mtb bLac sens,Arbovirus inh,Mtb growth,RecA intein inh,YopH inh,others
CC(C)C[C@@H](CSc1ccc(Br)cc1)N1CCN(CCc2ccccc2)CCC1=O,4,x,15%,14,x,
CC(C)(C)c1nc(C(C)(C)C)c(Br)c(=O)[nH]1,12,7,10%,0.8,-15,

# (cont.)
SMILES,Mtb bLac sens,Arbovirus inh,Mtb growth,RecA intein inh,YopH inh,others
Cc1ccccc1NC(=S)NCC(c1cccnc1)N(C)C (stereo not given),-4,-7,-1%,-2.6,-17,
CCc1nc(SCC(=O)Nc2ccnc3ccccc23)n[nH]1,-1,4,-7%,0.3,-27,
O=C(NCCc1ccccc1)c1c(O)c2ccccc2[nH]c1=O,3,x,x,4.2,x,
CCOC(=O)c1nn(-c2ccc(Cl)cc2)c2nc(CC)c(C#N)c(=O)n12,8,5,2%,-1.0,-19,
Cc1cc(C)nc(NS(=O)(=O)c2ccc(N/C=C3\CCCC3=O)cc2)n1,16,-1,-5%,-1.1,18,
CCCc1[nH]nc2c1C(c1ccccc1OCC)C(C#N)=C(N)O2 (stereo not given),-2,-3,-3%,67*,-45,
O=C(NCc1n[nH]c(=S)n1Cc1ccccc1)c1ccccc1,-4,3,-3%,0.7,x,
CN(CC(=O)Nc1cccc(F)c1)C(=O)c1cccc(-n2cccc2)c1,-7,x,x,2.4,x,
CC1CCN(CCCn2c(SCC(=O)NC3CCCC3)nc3ccccc3c2=O)CC1,3,x,x,1.7,x,
CCOC(=O)c1c(C)c(C(=O)Nc2ccc3c(c2)OCCO3)c(C)n1CC,-10,-3,11%,3.4,6,
CC(C)(C)C1CCC(C(=O)NCCc2ccc(S(N)(=O)=O)cc2)CC1 (stereo not given),2,x,x,2.3,x,
CC(C)c1ccc(Nc2ncccc2C(=O)O)cc1,0,14,0%,0.6,x,
CC(C)[C@@H](CO)NC(=O)c1ccc2c3n(nc2c1)-c1ccc(Cl)cc1CO3,3,x,1%,-0.9,x,
CCCn1c(=O)c(C(=O)N/N=C/c2ccc(F)cc2)c(O)c2ccccc21,98,x,u,0.7,x,
COc1cccc(Nc2nc(C)cc(C)c2C(N)=O)c1,-7,x,x,0.5,x,
O=C(CSc1ccc2c(c1)OCCO2)NC(=O)NC1CCCC1,14,4,-6%,-1.5,-11,Arbovirus inh repeat=5
COc1ccc(S(=O)(=O)N2CCCCCC2)cc1C(=O)N(C)Cc1ccc(F)cc1,-9,x,x,1.4,x,
O=C(C1CC1)N1N=C(c2cccc(Br)c2)CC1(O)C(F)(F)F (stereo not given),-10,x,x,9.6,x,
CC(C)Cn1c(O)c2ccc(C(=O)N=NC(=O)c3cccnc3)cc2c1O,-3,-2,-7%,-1.8,-32,
O=C(/C=C/c1cccc([N+](=O)[O-])c1)NCc1ccc2c(c1)OCO2,-9,-17,11%,-1.8,-25,
NC(=S)Nc1cc(Cl)ccc1Cl,-1,x,-2%,0.1,x,
Cc1cc(C)n2nc(SCC(=O)N(C(C)C)C(C)C)nc2n1,39,6,-3%,0.4,-18,
CCOc1ccc(-n2c(-c3ccccc3)c[n+]3c2CCCCC3)cc1,-7,17,3%,-2.1,-21,
COC(=O)C1=C(C(=O)OC)[C@@H]2N(C)c3ccc(OC)cc3[C@@]23C[C@@H](C(=O)OC)N(C(=O)NCCBr)C3=N1,-2,x,4%,1.9,x,
COc1ccc(OC)c(/C=C2\SC(=S)N(NS(=O)(=O)c3ccccc3)C2=O)c1,-13,x,x,-1.3,x,
CN(c1ccc(C(=O)Nc2ccc(Cl)cn2)cc1)S(=O)(=O)c1ccccc1,62,-9,47%,7.5,x,
CC(NC(=S)Nc1cccc(C(F)(F)F)c1)C(C)(C)C (stereo not given),89,-15,u,-0.4,x,
O=C(NC(=S)Nc1ccc(NC(=O)c2cccs2)cc1)c1cc2ccccc2o1,1,-15,1%,1.6,-31,
CC(NC(=O)c1ccco1)C(=O)N1CCc2ccccc2C1 (stereo not given),-5,-11,1%,9.0,-8,
COc1ccc(S(=O)(=O)N2CCN(c3ccc4nnc(-c5ccccc5)n4n3)CC2)cc1,4,14,15%,2.3,-38,
CCC(C(=O)NCC1CCCO1)N(Cc1ccc(F)cc1)C(=O)CNS(=O)(=O)c1ccccc1 (stereo not given),1,x,x,-2.6,x,
Cc1ccccc1N1CCN(C(=O)c2ccccc2NC(=O)c2ccccc2C(=O)O)CC1,-1,1,2%,0.4,x,
S=c1[nH]nc(COc2ccccc2)n1/N=C/c1cccc(Br)c1,-1,x,x,1.3,x,
CCOc1ccc(CCNC(=O)c2ccc(Cl)c(S(=O)(=O)N3CCOCC3)c2)cc1OCC,-8,x,x,0.1,x,
COc1cccc(OC)c1C(=O)Nc1cccc(C(=O)Nc2cccc(C(=O)O)c2)c1,2,x,x,-3.4,x,
COc1ccccc1CNC(=O)COC(=O)c1nccnc1N,1,x,x,1.0,x,
O=S(=O)(CCOc1ccccc1)N1CCOCC1,0,1,-2%,1.4,-18,
CCOc1ccc(/C=C2\SC(=S)N(NC(=O)c3ccncc3)C2=O)cc1OC,-2,x,-11%,-4.5,x,
O=C(CSc1nnc(-c2ccccc2)o1)N1CCCC1,-7,x,x,1.7,x,
COc1ccc(C(=O)Nc2ccc3oc(-c4cccnc4)nc3c2)cc1OC,5,3,-2%,0.5,x,
CC(C)(Oc1ccc(Cl)cc1)C(=O)Nc1c2c(nn1C(C)(C)C)CS(=O)(=O)C2,-9,x,x,-1.3,x,
Cc1cc(C)c(C#N)c(SCS(=O)Cc2ccc(Cl)cc2)n1 (stereo not given),7,2,0%,1.9,1,
O=C(OCC(=O)N1CCCC1)c1cncc(Br)c1,-8,6,x,-2.4,-6,
CN(CC(=O)NC1CCCCCCC1)S(=O)(=O)c1cnc[nH]1,2,-2,-4%,-5.0,x,
COc1cccc(NC(=O)C2CCCC2)c1,7,x,x,-0.6,x,
FC(F)(F)c1ccc(CSc2ccccn2)cc1,-2,x,-1%,0.1,x,
CCCCC(c1nnnn1Cc1ccco1)N1CCN(c2nc3ccccc3s2)CC1 (stereo not given),58,-17,-1%,x,-51,
Cc1onc(C(N)=O)c1C(=O)Nc1ncc(C(F)(F)F)cc1Cl,1,-3,10%,0.4,x,
O=C(NCc1cccc(Cl)c1)c1ccc(N2CC3CC(C2)c2cccc(=O)n2C3)c(NC(=O)c2cccnc2)c1 (stereo not given),-2,x,x,5.6,x,
O=C(c1ccc(F)cc1)n1c(=S)nc2ccccn21,-3,x,-9%,0.6,x,
CN1C(=O)N(S(=O)(=O)c2ccc(F)c(F)c2F)C(=O)C1(C)C,-9,7,-8%,1.5,-24,
Cc1ccc(OCC(=O)N(C)CC(=O)Nc2ccc(F)cc2)c([N+](=O)[O-])n1,-1,-2,-1%,-1.8,-19,
Cc1ccc(C(C(=O)NC2CCCC2)N(C(=O)c2csnn2)C2CC2)cc1 (stereo not given),-1,x,x,-3.3,x,
Cc1ccccc1N1CC(=O)Nc2c(oc3nc(-c4ccccc4)cc(C)c23)C1=O,64,x,3%,1.0,x,
Cc1ccc(N(C(=O)c2ccc(S(=O)(=O)N3CCCC3)cc2)C2C=CS(=O)(=O)C2)cc1 (stereo not given),-1,x,x,-0.5,x,
CCN1CCN(S(=O)(=O)c2ccc(Cl)c(C(=O)Nc3ccccc3N3CCOCC3)c2)CC1,-1,x,x,1.4,x,
NS(=O)(=O)c1ccc(NC(=S)NCc2ccc(F)cc2)cc1,-9,6,2%,-2.1,x,
COc1ccc(C(=O)Nc2nc3ccccc3[nH]2)cc1S(=O)(=O)N1CCCC1,75,-3,46%,-1.0,-13,
COc1cccc(NC(=O)c2sc(Cl)nc2C)c1,-9,x,x,-1.2,x,
O=C(CCCCC(=O)NC1CCCC1)NC1CCCC1,-4,-2,-9%,0.8,-25,

# Sorted by molar mass (smallest number first): part of the list above
SMILES,Mtb bLac sens,Arbovirus inh,Mtb growth,RecA intein inh,YopH inh,others
CN(CC(=O)NC1CCCCCCC1)S(=O)(=O)c1cnc[nH]1,2,-2,-4%,-5.0,x,
NS(=O)(=O)c1ccc(NC(=S)NCc2ccc(F)cc2)cc1,-9,6,2%,-2.1,x,
Cc1ccc(C(C(=O)NC2CCCC2)N(C(=O)c2csnn2)C2CC2)cc1 (stereo not given),-1,x,x,-3.3,x,
CCN1CCN(S(=O)(=O)c2ccc(Cl)c(C(=O)Nc3ccccc3N3CCOCC3)c2)CC1,-1,x,x,1.4,x,

# Following part
SMILES,Mtb bLac sens,Arbovirus inh,Mtb growth,RecA intein inh,YopH inh,others
O=C(Nc1ccc(Cl)cc1)N1CCN(c2ccccc2)CC1,18,-3,6%,1.3,-5,
Cc1ccccc1OCC(=O)NCC(=O)N/N=C/c1cccc([N+](=O)[O-])c1,6,-11,12%,0.9,x,
CCCN1CCCC[C@H]1C(=O)Nc1c(C)cccc1C,-4,x,-10%,-2.1,x,
CCc1nc2sccc2c(=O)n1N,-6,1,3%,5.2,x,
CSc1nsc(SCCN2C(=O)c3ccccc3C2=O)n1,0,-1,-2%,1.2,-37,
Nc1nonc1/C(=N/O)N1CCN(CCO)CC1,-1,7,-1%,-2.2,-2,Arbovirus inh repeat=3
O=C(OCc1ccccc1)Oc1cncc(C(=O)O)c1,-1,4,-12%,1.8,-50,
CC1O[C@@H](O[C@H](C)CC/C=C/C(=O)O)C(O)C[C@H]1O (stereo not given in full),-2,x,x,-3.7,x,
COc1ccc(N2CCN(CCCNC(=O)C3CCN(S(=O)(=O)N4CCOCC4)CC3)CC2)cc1,-8,16,-6%,-0.4,x,
CNc1cc(Cl)c2nonc2c1[N+](=O)[O-],x,-31,u,86*,x,
O=S(=O)(c1ccccc1)N1CCC(n2cnc3ccccc32)CC1,2,x,x,-0.3,x,
O=[N+]([O-])c1ccc(C(O)CN=Cc2ccc(O)cc2O)cc1 (stereo not given),-2,8,-5%,6.9,x,
CC(=O)Nc1ccc(S(=O)(=O)Nc2nc(-c3ccc(C(C)(C)C)cc3)cs2)cc1,5,3,6%,2.9,-24,
CCC1CCCCN1C(=O)Nc1cc(Cl)ccc1OC (stereo not given),20,8,18%,1.2,x,
CN1C(=O)c2cccc3c(N)ccc(c23)C1=O,-1,x,x,-200,x,
CC(Oc1ccc(Br)cc1)C(=O)NCC(c1cccs1)N1CCOCC1 (stereo not given),-17,x,x,-10,x,
